KSHV LANA nucl – LANA-nucleosome interaction inhibition; hit rate 0.3% among 51,000; AID 720717; FITC-LANA1-23 / chicken nucleosome fluorescence polarization; hits give low values; z-score (concentration not given with the values);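 active = both repeat wells score below -2 in polarization z-score versus plate sample wells, excluding overly bright wells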;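 also: 100 nL library stock added to about 30 µL; numbers are from one replicate; some results filed as inactive read as strong as hits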
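System – purified chicken nucleosomes with FITC-labelled LANA N-terminal peptide (1-23) · Amount – 240 nM purified chicken nucleosomes (480 nM peptide binding sites), final · Also added – 50 nM FITC-LANA1-23 probe · Medium – TEN-BT buffer, pH 7.5 · Incubation – compound with peptide–nucleosome mix 10–45 min at room temperature · Detection – fluorescence polarization, ex 480 nm, em 535 nm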
BasE inh – inhibitors of Acinetobacter baumannii siderophore enzyme BasE. hit rate 0.1% among 84,000. inhibition, % (no concentration beside the values). purified BasE, fluorescence polarization binding displacement. AID 485350;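 active = both replicates above 25% with normal brightness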;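 also: 0% = negative plate control signal and 100% = positive plate control signal; stock transfer was 100 nL into about 30 µL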
Active calls of the source: *; · = not tested or not shown; & = joins results of further samples. This is a subset; rates above refer to the full screens.

The line under a structure holds: KSHV LANA nucl	BasE inh
> O=C(O)COCC(=O)Nc1cnccn1
→ ·	0.6
> Cc1ccc(NC(=O)NCC2CN(CC(C)C)CCO2)cc1 (stereo unspecified)
→ ·	1.9
> COc1ccccc1NC(=O)CC(c1ccccc1)c1ccc(C)cc1O (stereo unspecified)
→ ·	2.6
> O=C(COC(=O)C1CCCN1C1=NS(=O)(=O)c2ccccc21)Nc1ccc(F)cc1 (stereo unspecified)
→ ·	-2.4
> O=C(/C=C/c1cccs1)N1CCCCC1c1nc2ccccc2s1 (stereo unspecified)
→ ·	0.5
> Cc1ncc(CSc2nc3ccc(C(F)(F)F)cc3[nH]2)c(CO)c1O
→ ·	0.9
> CCC(=O)N=c1sc2cc(OC)c(OC)cc2n1CCOC
→ -0.0845	-1.0
> CC1CCC(C(C)C)C(OC(=O)COC(=O)c2cc(=O)[nH]c(=O)[nH]2)C1 (stereo unspecified)
→ ·	0.2
> CN(Cc1ccccc1)S(=O)(=O)c1ccc(N2CCCCS2(=O)=O)cc1
→ 0.589	1.5
> Clc1ccc(OCc2cn3cccnc3n2)cc1
→ ·	-0.7
> CC(=O)NN=C1CCC(C(C)(C)C)CC1 (stereo unspecified)
→ ·	0.7
> O=C(C1CC(O)CN1S(=O)(=O)c1ccc2ccccc2c1)N1CCc2ccccc2C1 (stereo unspecified)
→ ·	-3.5
> O=C(OC(C(=O)NCC1CCCO1)c1ccc(F)cc1)c1ccco1 (stereo unspecified)
→ -0.0425	1.0
> O=c1[nH]c2ccccc2n1CCCSc1nnc(C2CCCCC2)o1
→ ·	0.0
> COc1cccc(C(C(=O)NCC2CCCO2)N(CC2CCCO2)C(=O)CC2C(=O)c3ccccc3S2(=O)=O)c1 (stereo unspecified)
→ -0.837	1.1
> COc1ccccc1C(C)NC(=O)c1ccc2nc[nH]c2c1 (stereo unspecified)
→ ·	-3.8
> CSc1ccc(NC(=O)N(Cc2ccccc2)C(=O)CC#N)cc1
→ 1.2	-1.6
> COc1ccc(C(C#N)c2ccc(C(=O)c3ccc(F)cc3)cc2)cc1 (stereo unspecified)
→ 0.112	·
> CCn1c2ccccc2c2nnc(SCC(=O)NCc3ccco3)nc21
→ 0.0675	1.3
> O=c1n(CC(O)CN2CCCCC2)c(=O)n(CC(O)CN2CCCCC2)c(=O)n1CC(O)CN1CCCCC1 (stereo unspecified)
→ -0.531	1.7
> Nc1nc(CSC2CCS(=O)(=O)C2)nc(NCCc2ccccc2)n1 (stereo unspecified)
→ -0.259	1.6
> O=C(c1cnc2ccccn12)C(F)(F)SCc1c(Cl)cccc1Cl
→ ·	1.1
> Cc1ccccc1NC(=O)C(C)Sc1nnc(-c2ccccc2C)o1 (stereo unspecified)
→ 1.04	0.9
> O=C(Nc1ccc2c(c1)OCCO2)N1C=CC(C(F)(F)F)=NCC1
→ ·	-0.2
> Cc1oc(-c2ccc(Cl)cc2)nc1CS(=O)CC(=O)NCCN1CCCC1 (stereo unspecified)
→ -0.5	-2.3
> COc1ccc(Oc2nc(C)cc(C)c2C#N)cc1
→ 0.412	-0.7
> O=C(NCCN1CCOCC1)N1CCNC1=O
→ 0.65	-2.0
> COc1ccc(-c2cccc(NC(=O)C(F)(F)F)c2)nn1
→ 0.248	-0.1
> COc1ccc(N2CCN(C(=O)C3CCN(C(=O)c4cc5sccc5n4C)CC3)CC2)cc1
→ -0.301	-1.1
> CCC1(c2ccccc2)C(=O)NCNC1=O
→ 1.15&-0.185&-0.0895	0.3&-2.0
> Sc1ccc2ccccc2c1
→ ·	0.7
> CC12CCC(=O)C=C1CCC1C2[C@@H](O)CC2(C)C1CC[C@]2(O)C(=O)COP(=O)(O)O (stereo partly specified)
→ -0.0785	·
> CS(=O)(=O)c1ccccc1C(=O)Nc1ccc2sccc2c1
→ -0.522	-1.2
> O=C1CNC(=O)N1Cc1ccc(F)cc1
→ 2.43	-2.3
> O=C1CCCN1CCCNC(=S)Nc1ccc(Nc2ccccc2)cc1
→ -0.92	2.2
> C=C[C@@]1(C)CC(=O)[C@]2(O)[C@@]3(C)[C@H](O)CCC(C)(C)[C@@H]3[C@H](O)[C@H](OC(C)=O)[C@@]2(C)O1
→ 0.0895	0.2
> CCc1nn(CC(=O)NCc2cc(Br)ccc2OC)c(=O)c2cc3sc(C)cc3n12
→ -0.214	0.2
> CCOCc1c(C(=O)Nc2cccc(C(=O)NC3CC3)c2)oc2ccccc12
→ ·	0.7
> Cn1ccsc1=NC(=O)c1ccc2c(c1)S(=O)(=O)c1ccccc1C2=O
→ ·	2.1
> O=C1NN=C(c2ccccc2)/C1=C1\OC(c2ccccc2)=CS1
→ ·	1.1
> COc1ccc(Cl)cc1NC(=O)CN(C(=O)c1ccco1)C1CCCCC1
→ -0.435	-1.2
> O=C(CN1CCN(S(=O)(=O)c2cc(C(F)(F)F)ccc2Cl)CC1)N1CCc2ccccc2C1
→ ·	0.4
> NNC(=O)CNC(=O)C12CC3CC(CC(C3)C1)C2
→ ·	1.0
> Cc1ccc(CN(C)CC(=O)Nc2cc(Cl)ccc2C#N)cc1
→ ·	0.0
> O=C(C=Cc1ccccc1)N1CCN(c2cccc(Cl)n2)CC1
→ -0.034	·
> O=C(COCc1cc(-c2ccco2)on1)NCCN1CCOCC1
→ 0.67	-0.7
> c1cc(CNC2CC2)ccn1
→ 0.059	-1.4
> C=CCN1C(=O)c2ccc(C(=O)OCC(=O)c3cc(C)n(C)c3C)cc2C1=O
→ ·	-0.1
> O=C(Nc1cccc(F)c1)c1oc2ccccc2c1NC(=O)C1CCCC1
→ 0.623	2.7
> NS(=O)(=O)c1cc(Cl)c(NC(=O)CSC2CCCC2)c(Cl)c1
→ ·	0.9

(continued)
The line under a structure holds: KSHV LANA nucl	BasE inh
> O=c1[nH]c(C2CCCN(S(=O)(=O)c3cccc(Cl)c3)C2)nc2c1nnn2Cc1ccc(Cl)cc1 (stereo unspecified)
→ -0.616	1.2
> CCOC(=O)c1cc(=O)c2ccc(OCc3ccccc3)cc2o1
→ ·	1.8
> O=S(=O)(c1cccc2nsnc12)N1CCN(C(c2ccccc2)c2ccccc2)CC1
→ 0.113	1.4
> CCc1nc2cccnc2n1-c1ccc(CC(=O)NCC2CCCO2)cc1 (stereo unspecified)
→ -0.396	2.2
> CNS(=O)(=O)c1ccc(Cl)cc1Cl
→ ·	-1.3
> CCn1c(SCC(=O)N2CCC(C)CC2)nnc1-c1ccccc1O
→ 0.0535	-0.5
> CC(C#N)Sc1nnc(C2CCCCC2)n1N (stereo unspecified)
→ ·	-2.1
> CC(=O)NC[C@H]1CN(c2ccc(N3CCOCC3)c(F)c2)C(=O)O1
→ 0.226&-0.228	·
> Cc1sc2ncn(CC(=O)c3ccccc3)c(=O)c2c1C
→ -0.154	-13.5
> NNC(=O)c1cc2c(s1)CCCCC2
→ ·	-1.6

Further compounds
SMILES	KSHV LANA nucl	BasE inh
Cc1c(Cl)cn2c(=O)cc(CN3CCN(Cc4ccc5c(c4)OCO5)CC3)nc2c1Cl	·	-1.0
O=C(C1CC(=O)N(c2ccc3c(c2)OCCO3)C1)N1CCN(c2ccccc2)CC1 (stereo unspecified)	·	0.9
CC(C)NC(=O)CSc1nc2ccccc2s1	·	3.1
CC(Sc1nc2c(cc1C#N)CCCCC2)C(=O)O (stereo unspecified)	0.916	2.1
Cc1noc(C)c1COc1cccc(C(=O)OC(C)C#N)c1 (stereo unspecified)	·	1.2
CCOC(=O)Cn1cc(C#N)c2ccccc21	0.408	-1.7
OCCNC(=S)NC1CCCC1	·	0.7
Nc1n[nH]c(CCCO)n1	·	1.8
COC(=O)CN1C(=S)N(Cc2ccccc2)C(=O)C1CC(=O)Nc1ccc(OC)cc1 (stereo unspecified)	·	2.2
CC(=O)N1CCN(C(=S)Nc2ccc(F)cc2)CC1	·	2.3
CN(C)CCNC(=O)Cn1nc(C(F)F)cc1C1CC1	-0.443	2.5
CN=Cc1c(Cl)nc2sccn12	-0.609	·
N#C/C(=C(/O)CSc1ccccn1)c1nc2ccccc2s1	·	2.7
CCCCC(=O)N1c2ccccc2NC2=C(C(=O)CCC2)C1c1ccccc1 (stereo unspecified)	·	2.6
O=C(O)C(Cc1ccccc1)N1C(=O)/C(=C/C=C/c2ccco2)SC1=S (stereo unspecified)	-0.069	24.2
Cc1oc2c(c1C(=O)NC1CCCCC1)C(=O)c1ccccc1C2=O	0.258	4.6
CC(C)C(CC(=O)O)c1c[nH]c2ccccc12 (stereo unspecified)	0.059	2.5
Cc1nn(-c2ccccc2)c2ncc(C(=O)c3ccccc3O)cc12	·	0.0
Cc1ccc(-c2cc(-c3ccccc3)c(C#N)c(SCS(=O)Cc3ccccc3)n2)cc1 (stereo unspecified)	·	1.0
O=C(NCc1ccco1)C1Sc2nnc(-c3ccccc3)n2NC1c1ccccc1 (stereo unspecified)	0.152	-1.8
O=C(NCCc1ccccc1)c1cc2n(n1)C(C(F)(F)F)CC(c1ccc(Br)cc1)N2 (stereo unspecified)	·	1.1
COc1ccc(N2CCN(C(C)C(=O)N(C)c3ccccc3)CC2)cc1 (stereo unspecified)	·	0.1
COc1ccc(N=C2NC(=O)/C(=C\c3ccc(Sc4nc5ccccc5[nH]4)o3)S2)cc1	0.407	-0.5
O=C1OCN2c3ccccc3C34OC12c1ccccc1N3COC4=O	·	3.3
COc1ccc(CN=Cc2ccc(C(F)(F)F)cc2)cc1	·	3.3
CN1CCN(NS(=O)(=O)c2ccc3ccccc3c2)CC1	0.451	4.2
CNC(=S)Nc1cc(Cl)cc(Cl)c1	·	1.4
CCc1c(C(=O)OC)nnc2cc(C)nn12	·	3.2
O=C(NCC1CCCCN1)c1cc(OCC(F)(F)F)ccc1OCC(F)(F)F (stereo unspecified)	0.65&0.139&0.005	0.7&-0.5
Cc1cccc(-c2nc(CNC(=O)C3CCCO3)cs2)c1 (stereo unspecified)	-0.183	-0.8
CC(O)c1ccc(-c2ccc(CO)o2)cc1 (stereo unspecified)	·	-0.5
COc1ccc(C2CC(=O)N(C)c3ccccc3S2)cc1OC (stereo unspecified)	0.372	-0.9
CC1(C)CC(=O)C(C=NC2CCCCC2)=C(O)C1	0.189	0.5
COc1ccc(Cl)cc1NC(=O)CN(C)S(=O)(=O)c1ccc2c(c1)CCCC(=O)N2	·	-1.2
CC(C)Cn1c(-c2ccncc2)n[nH]c1=S	·	2.6
O=C(O)c1ccc(NNC(=S)NCCN2CCOCC2)cc1	·	2.4
Cc1nc(N)sc1N=Nc1ccc(S(=O)(=O)N2CCOCC2)cc1	1.17	1.7
N#CCc1ccc(NC(=O)Cc2ccccc2)cc1	-0.112	-1.3
CN(C)NC(=S)Nc1cccc(C(F)(F)F)c1	-0.643	1.0
Cc1nonc1OCCN1CCN(c2cnn(-c3ccccc3)c(=O)c2Cl)CC1	0.859	0.7
Cc1cc(-c2cn3cc(Br)ccc3n2)c(C)n1Cc1ccco1	·	-0.2
CSCC[C@@H](C(=O)O)N1Cc2ccccc2C1=O	0.329	3.5
CC(C)OC(=O)n1c(=S)oc2ccccc21	·	3.0
O=C(CCSc1nnc(-c2ccco2)o1)N1CCOCC1	0.24	-0.4
S=C(c1cccnc1)N1CCOCC1	-0.71	0.9
CNC(=O)NC(=O)Cn1cnc2sc(-c3ccccc3)cc2c1=O	·	0.0
FC(F)(F)c1cc(NC(=S)NC2CCCCC2)cc(C(F)(F)F)c1	·	1.3
CCOc1ccc(NC(=O)c2ccc(Br)o2)cc1	-0.249	0.7
COc1ccc(C/C(=N/N=C(N)N)c2ccc(OC)cc2)cc1	-0.99	-0.2
NC(=S)CC(=S)N1CCOCC1	·	1.1
COc1ccc(-c2csc(NC(C)=O)c2C(=O)O)cc1	-0.929	1.1
CC(C)(C)C(=O)OCc1nc(-c2ccc(Cl)cc2)cs1	·	-1.2
C=C(C)Cn1c(N)cc(=O)nc1SCC(=O)Nc1cccc(C(F)(F)F)c1	0.887	-7.1
N#CC(C#N)=Cc1cccn1-c1ccc(S(N)(=O)=O)cc1	-0.487	4.5
COc1ccc(-c2[nH]nc(-c3ccccc3)c2-c2ncc[nH]2)cc1	·	1.2
CC1=CC(C)C(/C=N/O)C(C)C1 (stereo unspecified)	-0.643	0.8
CCN1CCCC1CNc1ccc(S(=O)(=O)N2CCCC2)cn1 (stereo unspecified)	·	2.7
O=C(Nc1cccc(F)c1)c1ccc2ncsc2c1	·	-6.9
CCC(CC)c1nnc(NC(=O)c2ccc(CSc3ncn[nH]3)cc2)s1	·	-9.9

Entries from the list above that contain an NH in an aromatic ring (11):
SMILES	KSHV LANA nucl	BasE inh
Cc1ncc(CSc2nc3ccc(C(F)(F)F)cc3[nH]2)c(CO)c1O	·	0.9
CC1CCC(C(C)C)C(OC(=O)COC(=O)c2cc(=O)[nH]c(=O)[nH]2)C1 (stereo unspecified)	·	0.2
O=c1[nH]c2ccccc2n1CCCSc1nnc(C2CCCCC2)o1	·	0.0
COc1ccccc1C(C)NC(=O)c1ccc2nc[nH]c2c1 (stereo unspecified)	·	-3.8
O=c1[nH]c(C2CCCN(S(=O)(=O)c3cccc(Cl)c3)C2)nc2c1nnn2Cc1ccc(Cl)cc1 (stereo unspecified)	-0.616	1.2
Nc1n[nH]c(CCCO)n1	·	1.8
CC(C)C(CC(=O)O)c1c[nH]c2ccccc12 (stereo unspecified)	0.059	2.5
COc1ccc(N=C2NC(=O)/C(=C\c3ccc(Sc4nc5ccccc5[nH]4)o3)S2)cc1	0.407	-0.5
CC(C)Cn1c(-c2ccncc2)n[nH]c1=S	·	2.6
COc1ccc(-c2[nH]nc(-c3ccccc3)c2-c2ncc[nH]2)cc1	·	1.2
CCC(CC)c1nnc(NC(=O)c2ccc(CSc3ncn[nH]3)cc2)s1	·	-9.9
